Compound activity (PubChem BioAssay)
Kir21 inh: inhibitors of mouse Kir2.1 inward-rectifier potassium channel; Inward rectifier potassium channel 2 (Mus musculus), P35561; HEK293-Kir2.1, FluxOR thallium flux fluorescence; hits give low values; B-score at 10 µM; actives 0.85% (n = 310,000); AID 1672, 2009;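 active = fluorescence ratio B-score at or below minus 3 SD of library scores, with starting-brightness B-score within 2 SD, cut at about -4.2 in these data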;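 note: channel flux triggered by added potassium and thallium sulfate stimulus; B-score of peak minus minimum fluorescence over baseline after thallium stimulus; more negative B-score means stronger Kir2.1 block with less thallium influx; some compounds called inactive have numbers as strong as hits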
Target sequence (P35561 whole entry, looked up): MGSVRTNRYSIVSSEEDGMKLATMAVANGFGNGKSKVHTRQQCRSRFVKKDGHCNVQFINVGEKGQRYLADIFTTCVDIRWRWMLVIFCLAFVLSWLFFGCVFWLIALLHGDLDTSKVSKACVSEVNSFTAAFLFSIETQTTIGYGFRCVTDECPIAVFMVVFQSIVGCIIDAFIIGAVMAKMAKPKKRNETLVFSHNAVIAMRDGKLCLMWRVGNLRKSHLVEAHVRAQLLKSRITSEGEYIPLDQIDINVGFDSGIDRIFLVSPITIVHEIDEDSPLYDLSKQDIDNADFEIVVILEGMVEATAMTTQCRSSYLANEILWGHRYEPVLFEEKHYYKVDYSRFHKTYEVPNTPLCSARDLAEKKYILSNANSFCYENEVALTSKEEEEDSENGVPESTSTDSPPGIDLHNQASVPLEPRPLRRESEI
An asterisk follows results filed as active.

Molecule,Kir21 inh
COc1ccccc1CN(C)C(=O)CNC(=O)c1cccc(Cl)c1,-1.3
O=C(CSc1nnc(NC(=O)C2CCC2)s1)Nc1ccccc1,0.45
Cc1cc(C)c2c(N)c3cccc(C)c3nc2n1,-0.95
Cc1cc(C)n2c3c(c(C#N)c2n1)CC(C)(C)OC3,2.3
CCNC(=O)COC(=O)/C=C/c1cccc(F)c1,-0.89
CC1Sc2ccc(S(=O)(=O)N3CCN(c4ccccc4)CC3)cc2NC1=O (stereo not given),1.6
COC(=O)c1cnn2c(C(F)(F)F)cc(-c3ccc(F)cc3)nc12,0.47
O=C(Nc1ccc(N2CCOCC2)cc1)Nc1ccc(Cl)c(Cl)c1,-0.14
O=C(NCc1ccc2c(c1)OCO2)c1ccc2c(c1)C(=O)N(CC1CCCO1)C2=O (stereo not given),-0.49
CN(CC(=O)Nc1ccccc1C(F)(F)F)Cc1c(O)ccc2ccccc12,-0.81
Cc1cccc(NC(=O)Cn2cc([N+](=O)[O-])cn2)n1,0.21
Cc1ccc(S(=O)(=O)N2CCC(C(=O)OC(C)C(=O)NC(N)=O)CC2)cc1C (stereo not given),-1.3

Going on with the list.
Molecule,Kir21 inh
CCN(CC)CCCNC(=O)c1ccc(CS(=O)(=O)c2ccccc2OC)o1,-0.86
O=C(Cc1ccccc1)N[C@@H](Cc1ccccc1)c1nc2ccccc2[nH]1,-0.62
C=C1SC(Nc2c(C)cccc2C)=NC12CCCCC2,-0.01
O=C(c1cccs1)N1CCN(c2nc3ccccc3s2)CC1,-0.33
CCOC(=O)C1=C(CC)OC(N)=C(C#N)C1c1ccsc1 (stereo not given),-1.9
Clc1ccc(-c2nnc(NCCN3CCCC3)c3ccccc23)cc1,-0.05
CC(C)OC(=O)CC1C(=O)NCCN1C(=S)NC(=O)CCc1ccccc1 (stereo not given),1.3
COC(=O)/C=c1/s/c(=C(/C#N)C(=O)N2CCCCC2)n(-c2ccccc2)c1=O,-2.6
CC(C)CCNC(=O)C(=O)Nc1ccc2c(c1)N(S(=O)(=O)c1cccs1)CCC2,0.35
CC(=O)NC(c1ccc(C(C)C)cc1)c1ccc2cccnc2c1O (stereo not given),-0.04
O=C(CC1(O)C(=O)Nc2ccc(Br)cc21)c1ccc2c(c1)OCO2 (stereo not given),-0.42
CCOc1cccc(C(=O)Nc2cccnc2)c1,-0.27

Later entries.
Molecule,Kir21 inh
COc1ccccc1CNC(=O)CCS(=O)(=O)Cc1ccc(C)cc1,-1.4
O=C(COc1ccc2ccc(=O)oc2c1)N1CC[C@@]2(O)CCCC[C@H]2C1,0.98
COc1ccc(/C=N/Nc2nc(-c3cccc(S(=O)(=O)N4CCCC4)c3)cs2)c(OC)c1,-1.4
COc1cc(C2C(C#N)=C(N)OC3=C2C(=O)CCC3)cc(OC)c1OC(=O)N1CCOCC1 (stereo not given),1.5
CCOC(=O)N1CCN(S(=O)(=O)c2ccc3c(c2)CCN3C(=O)CC)CC1,0.02
O=C(Nc1ccccc1)Nc1nnc(-c2cccs2)s1,0.11
Cc1ccc(S(=O)(=O)NNC(=O)Nc2cccc(C)c2C)c(C)c1,-0.24
COc1cccc(OC)c1C(=O)OCC(=O)NCCCc1ccccc1,-0.9
C#CCOC(=O)C(NC(=O)c1ccccc1)=C(C)C,0.25
O=C1C(=O)N(Cc2ccccc2)C(c2cccc(O)c2)/C1=C(\O)c1ccc2c(c1)OCCO2 (stereo not given),0.41
Cc1ccc(-n2c(=O)c3c(n4cnnc24)-c2ccccc2CC32CCCCC2)cc1,2
COc1ccc(CCNC(=O)Cn2nc(C)n3nc(-c4ccccc4)cc3c2=O)cc1OC,1.9

The list goes on.
Molecule,Kir21 inh
Cn1c(SCc2nc3ccccc3c(=O)[nH]2)nnc1-c1ccco1,-0.03
COc1ccc(C(CC(=O)N2CCCC2)c2c(OC)cc(OC)c3c(-c4ccccc4)cc(=O)oc23)cc1 (stereo not given),-0.96
CC(NC(=O)c1cccs1)C(c1cccs1)N1CCN(Cc2ccccc2)CC1 (stereo not given),-1.9
NS(=O)(=O)c1cnccc1Nc1ccc(Cl)c(Cl)c1,1.4
CC(C)CC(=O)NC(NC(=S)Nc1ccccc1)C(Cl)(Cl)Cl (stereo not given),-1.1
CCCn1cnc2sc(CC)cc2c1=O,0.85
CCCCn1c(SCc2cccnc2)nc2c1c(=O)n(C)c(=O)n2C,-0.9
CCCNC(=O)c1ccc2c(=O)c(O)c(-c3ccc(C)cc3)[nH]c2c1,0.42
COCCCN1C(=O)c2ccc(C(=O)Nc3ccccc3Cl)cc2C1=O,1.4
COc1ccc(OCC(=O)NNC(=O)C(=O)N2CCCC2)cc1,-0.87
CC(=O)N1c2ccc(S(=O)(=O)NCc3ccco3)cc2CC1C (stereo not given),0.43
S=c1[nH]nc(-c2cnccn2)n1-c1ccccc1,0.18

(listing goes on)
Molecule,Kir21 inh
N#Cc1ccccc1NC(=O)c1ccc(-c2ccccc2Cl)o1,-1.1
COc1cccc(NC(=O)CN(C)C(C)C(=O)Nc2ccc(S(=O)(=O)N3CCOCC3)cc2)c1 (stereo not given),2.6
COCc1cc(=O)[nH]c(N2CCN(C(=O)c3ccco3)CC2)n1,-1.1
CC1=N/C(=C/c2cccnc2)C(=O)O1,-0.5
Cc1nc(NCc2ccccc2)c2cc[nH]c2n1,0.86
CC(C)C(=O)n1nc(-c2cccnc2)nc1NCc1ccc(F)cc1,-1.1
Cc1ccc2[nH]c(=O)c(CN(CCc3ccccc3)C(=O)N3CCOCC3)cc2c1,-1.3
Cc1nn(C(=O)c2cccnc2)c(C)c1Sc1ccc(Br)cc1,2.3
O=C(CCC1CCCC1)NC1CCCCC1,1.4
COCCCN1C(=O)C(=O)/C(=C(/O)c2ccc(S(=O)(=O)N3CCOCC3)cc2)C1c1ccc(Cl)cc1 (stereo not given),1.2
CCn1c(=O)n(CC)c2cc(N3CCCC3)c(NC(=O)c3c(F)cccc3F)cc21,-0.13
Cn1c(=O)c2c(nc(Oc3ccc4c(c3)OCO4)n2Cc2ccc(Br)cc2)n(C)c1=O,0.09

New compounds follow:
Molecule,Kir21 inh
COc1ccc(SCCN2CCN(CC(C)C)CCC2=O)cc1,0.23
CCSc1n[nH]c(=O)[nH]c1=O,2.1
CN1C(CC(=O)c2ccccc2)CCCC1CC(O)c1ccccc1 (stereo not given),-2
CCC(=O)Nc1ccc(NC(=S)NC(=O)c2cc3ccccc3o2)cc1,-2.3
Cc1cc(NC(=O)CCC(=O)N(CC(=O)NC2CCCC2)c2ccc(F)c(Cl)c2)no1,0.27
C=CCn1c(=NC(=O)c2cc(Cl)sc2Cl)sc2cc(S(N)(=O)=O)ccc21,-0.99
Cc1ccc(C)c(S(=O)(=O)NCc2ccc(C(=O)N3CCN(C)CC3)cc2)c1,0.94
Cc1ccc(NS(=O)(=O)c2cccc3cccnc23)c(Br)c1,-1.4
Cc1ccc(NC(=S)NC(=O)c2ccccc2)cc1NC(=S)NC(=O)c1ccccc1,0.24
c1ccc(Cn2ncc3c(Nc4ccccc4)ncnc32)cc1,1.6
NC(=O)C1CCN(C(=O)CN2CCc3ccccc32)CC1,-0.62
COc1cc(SC)ccc1C(=O)Nc1ccncc1,-1.7

3 entries drawn at random from the list so far, as already listed:
Molecule,Kir21 inh
COc1cc(SC)ccc1C(=O)Nc1ccncc1,-1.7
CCCn1cnc2sc(CC)cc2c1=O,0.85
CC(C)CC(=O)NC(NC(=S)Nc1ccccc1)C(Cl)(Cl)Cl (stereo not given),-1.1

The list goes on.
Molecule,Kir21 inh
COc1ccc(-n2nc3cc(C)c(NC(C)=O)cc3n2)cc1,0.74
CC(C)(CO)NS(=O)(=O)c1ccc2c(c1)Cc1cc(S(=O)(=O)NC(C)(C)CO)ccc1-2,-0.75
CC(CCc1ccco1)NC(=O)Cn1ncc2c(=O)oc3ccccc3c21 (stereo not given),-0.14
CC1=NN(C(=O)c2nn(C)cc2Br)C(O)(C(F)(F)F)C1 (stereo not given),1.3
COc1ccc(N(C(=O)Cn2nnc(-c3ccc(C)o3)n2)C(C(=O)NC2CCCC2)c2ccncc2)cc1 (stereo not given),-0.23
CN1CCN(C(=O)/C(=C/c2ccccc2Cl)NC(=O)c2ccccc2)CC1,-0.38
CCOC(=O)N1CCN(C(=S)NC2CCCCC2)CC1,-2.3
Cc1cc(=O)[nH]c(SCC(=O)Nc2cccc3ccccc23)c1C#N,0.18
C=CCN1C(=O)C(CC(=O)O)SC1=Nc1ccc(N=Nc2ccccc2)cc1 (stereo not given),2.5
O=C(C1=NN[C@@H]2C(=O)N(c3ccccc3C(F)(F)F)C(=O)[C@H]12)c1ccc2ccccc2n1,0.53
Cc1cc2oc3c(c(=O)c2cc1C)C(c1cccc(Br)c1)N(Cc1ccco1)C3=O (stereo not given),0.69
O=C(Nc1ccc2c(c1)OCO2)C1CC(=O)N(CCc2ccccc2)C1 (stereo not given),-0.15

Continued:
Molecule,Kir21 inh
O=C1NCCN/C1=C\C(=O)c1ccc(Cl)cc1,0.32
Cc1c(NC(=O)c2ccccc2NC(=O)COc2ccccc2)cccc1C(=O)O,-0.07
NS(=O)(=O)c1ccc(-c2ccc(C=C3C(=O)c4ccccc4C3=O)o2)cc1,2.8
COc1ccc(CSc2nnnn2-c2ccccc2)cc1,-2.1
Cc1nc(C)c(-c2ccc(SCC(=O)Nc3ccc(F)cc3F)nn2)s1,1.2
Cc1nc(SC2CC(=O)N(c3ccccc3)C2=O)nc2c1CCCC2 (stereo not given),-2.5
COc1cccc(N=Cc2nc(-c3ccccc3)oc2OC(C)=O)c1,0.89
COc1ccc(C(=O)c2ccc(OC)c(OC)c2)cc1,0.02
COc1ccc(-c2cc(C)no2)cc1S(=O)(=O)N1CCN(c2ccccn2)CC1,0.94
Cc1sc2nc(SCC(=O)NCc3ccco3)n(-c3ccccc3)c(=O)c2c1C,-0.37
Cc1noc(C)c1S(=O)(=O)N1CCCC(C(=O)NCCc2ccc(Cl)cc2)C1 (stereo not given),-0.35
Cc1ccc(N2CCN(c3ccc(C)cc3)C2c2ccccn2)cc1,2.4

Other results.
Molecule,Kir21 inh
CSc1c[n+]2c(n1C)CCC2,-1.6
O=S(=O)(Nc1ccccn1)c1cccc(S(=O)(=O)c2ccc(Br)cc2)c1,0.62
COc1cccc(NC(=S)NC(C)c2ccc(OC)c(OC)c2)c1 (stereo not given),-1.8
CCn1cc(CNC(=O)c2ccc(OC3CCN(Cc4ccccn4)CC3)cc2)cn1,-0.57
Cc1cc(OCC(=O)Nc2nnc(C3CC3)s2)ccc1[N+](=O)[O-],-1.5
COc1ccc2nc(Nc3nc(C)c(CCC(C)C)c(=O)[nH]3)nc(C)c2c1,1.6
Cc1cccn2c(=O)c3cc(S(=O)(=O)c4ccccc4)c(=N)n(Cc4cccnc4)c3nc12,1.7
O=C(Cn1c(=O)oc2ccccc21)Nc1nnc(N2CCCCCC2)s1,1.9
COc1ccc(NC(=O)Cn2nnc(C(=O)Nc3ccccc3C)c2N)cc1,0.1
CCOC(=O)c1ccc(CSc2nnc(N)s2)cc1,0.02
COc1ccc(C(=O)N/C(=C/c2ccccc2F)C(=O)NCCN2CCOCC2)cc1OC,3.2
CCOc1ccccc1C(=O)NC1CCN(CC(=O)Nc2cc(OC)ccc2OC)CC1,2

Other results follow:
Molecule,Kir21 inh
Nc1ccc(S(=O)(=O)Nc2nc(-c3ccccc3)cc(-c3ccccc3)n2)cc1,1.2
Cc1cc(C)c2c(N)c(C(=O)N3CCc4ccccc4C3)sc2n1,1.6
CCOC(=O)C1(C)NC(c2ccc(OC)c(OC)c2)C2C(=O)N(CC)C(=O)C21 (stereo not given),1.9
Cc1ccc(-n2nc3c(=O)n(CC(=O)NCc4ccccn4)nc(C)c3c2C)cc1,-0.64
Cc1nc2c(c(=O)n1CCC1=CCCCC1)c1nc3ccccc3nc1n2/N=C/c1ccccc1,1.6
COc1ccc(S(=O)(=O)NCC2CCCN(Cc3cccnc3)C2)cc1 (stereo not given),-1.1
CCC(CO)N=CC1=C(O)CC(c2ccccc2)CC1=O (stereo not given),-0.1
CN1CCN(c2ccc([N+](=O)[O-])cc2NC(=O)c2ccco2)CC1,-0.99
CC(C)CN(C(=O)COC(=O)c1ccc2ccccc2n1)C1CCS(=O)(=O)C1 (stereo not given),-0.24
CCOC(=O)c1ccc(N=Cc2nc(-c3ccccc3)oc2OC(C)=O)cc1,-0.63
Cc1ccc(S(=O)(=O)N2CCCCC2)cc1NC(=O)COC(=O)c1c(F)cccc1F,1.3
CC1(C)Cc2c(sc3c2c(=N)n(Cc2ccco2)c(=O)n3CC(=O)Nc2cccc(Cl)c2)CO1,-0.22

(further entries)
Molecule,Kir21 inh
N#CC(C(N)=O)=C1CCC2(CC1)OCCCCO2,-0.98
CCOc1cccc(/C=C/c2ccc3cccc(O)c3n2)c1OC,-0.42
CC1(C)N=C(c2cccs2)C(C)(C)N1O,0.75
CC(C)(Cl)C1Cc2cc3ccc(=O)oc3cc2O1 (stereo not given),0.36
O=C(Nc1nccs1)c1ccc2ccccc2n1,-1.2

Another view of 3 compounds above.
> S=c1[nH]nc(-c2cnccn2)n1-c1ccccc1
  Kir21 inh: 0.18

> COc1ccc(CCNC(=O)Cn2nc(C)n3nc(-c4ccccc4)cc3c2=O)cc1OC
  Kir21 inh: 1.9

> O=C(CC1(O)C(=O)Nc2ccc(Br)cc21)c1ccc2c(c1)OCO2 (stereo not given)
  Kir21 inh: -0.42

This is a subset; most or all hits stand in other tables.
